KCNQ2 pot – enhances the rat KCNQ2 potassium channel. O88943. B-score at 10 µM. 0.54% of 310,000 active. CHO-K1 KCNQ2, FluxOR thallium flux fluorescence; hits give high values;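 active = fluorescence ratio B-score at least 3 SD of library B-scores, with initial fluorescence B-score within 3 SD, cut at about 5.3 in these data; same plate scores as AID 2156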;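 also: B-score of peak minus minimum over baseline fluorescence ratio after K+ and Tl+ stimulus; positive B-score means potentiation of KCNQ2 with more thallium influx and brighter signal; only the inactives scoring about 0 or higher are listed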
Target sequence (O88943 whole entry, looked up): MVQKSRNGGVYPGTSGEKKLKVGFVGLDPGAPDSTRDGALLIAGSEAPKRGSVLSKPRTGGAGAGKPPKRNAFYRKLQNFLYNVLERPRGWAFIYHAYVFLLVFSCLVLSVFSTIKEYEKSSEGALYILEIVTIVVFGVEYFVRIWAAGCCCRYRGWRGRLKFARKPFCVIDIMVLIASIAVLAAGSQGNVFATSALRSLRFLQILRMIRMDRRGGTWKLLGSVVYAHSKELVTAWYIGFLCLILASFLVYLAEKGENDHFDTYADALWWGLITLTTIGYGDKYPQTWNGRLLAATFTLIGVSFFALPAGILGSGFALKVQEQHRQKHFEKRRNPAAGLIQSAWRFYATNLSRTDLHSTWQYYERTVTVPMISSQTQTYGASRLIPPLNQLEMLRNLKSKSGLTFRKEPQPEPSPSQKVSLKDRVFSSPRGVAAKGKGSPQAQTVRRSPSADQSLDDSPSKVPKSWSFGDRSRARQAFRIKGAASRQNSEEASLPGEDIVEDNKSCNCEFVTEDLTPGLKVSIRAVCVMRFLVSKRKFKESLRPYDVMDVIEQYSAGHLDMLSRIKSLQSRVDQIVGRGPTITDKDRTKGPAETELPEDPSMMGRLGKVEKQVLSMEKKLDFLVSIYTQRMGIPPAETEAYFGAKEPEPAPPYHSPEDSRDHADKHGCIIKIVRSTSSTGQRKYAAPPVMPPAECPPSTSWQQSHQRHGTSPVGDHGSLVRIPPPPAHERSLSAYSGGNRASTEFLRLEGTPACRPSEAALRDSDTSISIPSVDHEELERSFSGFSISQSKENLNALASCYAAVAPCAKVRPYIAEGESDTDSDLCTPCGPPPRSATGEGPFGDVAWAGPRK
KCNQ2 pot baseline – also measured in KCNQ2 pot; calls as there; B-score; compound at 10 µM; measured here: initial fluorescence intensity artifact check;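 brightness before thallium and not channel activity; 0 = typical well and far values either way flag optical interference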
An asterisk follows results filed as active. A portion of the library; the hit share may differ from the screen's.

KCNQ2 pot,KCNQ2 pot baseline,compound
0.07,1.64,COc1ccccc1C(C)NCC(=O)NCC(=O)Nc1ccc(F)c(F)c1F (configuration not stated)
1.89,1.34,CN1CCN(c2ccccc2NC(=O)Cc2ccc(Cl)cc2)CC1
0.91,-2.46,CCOC(=O)N/N=C/c1cn(CCCOc2ccccc2)c2ccccc12
0.35,-0.83,Cc1ccc(CNC(=O)c2ccccc2N(C)S(C)(=O)=O)cc1
0.82,-0.67,CCC(C)c1ccc(NC(=S)Nc2ccc(OC)c(OC)c2)cc1 (configuration not stated)
0.94,0.75,Cc1ccc2nc(NCCNC(=O)c3ccccc3)c(C#N)cc2c1
0.74,0.2,Cc1ccc(OCC(=O)OC(C)CN(C)Cc2ccccc2)cc1 (configuration not stated)
0.76,0.15,CCOC(=O)c1cccc(NC(=O)Nc2ccc3c(c2)C(=O)OC3)c1

Some of the entries so far, as a markdown table:
| Compound | KCNQ2 pot | KCNQ2 pot baseline |
| --- | --- | --- |
| CCOC(=O)c1cccc(NC(=O)Nc2ccc3c(c2)C(=O)OC3)c1 | 0.76 | 0.15 |
| CCC(C)c1ccc(NC(=S)Nc2ccc(OC)c(OC)c2)cc1 (configuration not stated) | 0.82 | -0.67 |
| Cc1ccc(OCC(=O)OC(C)CN(C)Cc2ccccc2)cc1 (configuration not stated) | 0.74 | 0.2 |

Remaining list, next part:
KCNQ2 pot,KCNQ2 pot baseline,compound
0.53,-1.11,O=c1[nH]c2ccccc2c(=O)n1Cc1ccccc1
0.07,1.56,COc1ccc(Nc2ncnc3ccccc23)c(OC)c1
0.31,-0.78,O=C(Cc1ccccc1)NCC(=O)OCc1ccccc1F
0.79,-0.07,Cc1ccc(SCCC(=O)N/N=C/c2ccncc2)cc1
0.07,1.65,NC(=O)C1CCN(c2ncnc3c(-c4ccccc4)nsc23)CC1
0.56,0.8,NNC(=O)COc1ccc(-c2n[nH]c(C(F)(F)F)c2-c2ccc(Br)cc2)c(O)c1
0.4,-1.49,Cc1nccn1CC(O)Cn1c2ccccc2c2ccccc21 (configuration not stated)
0.06,1.02,Cc1[nH]c(C)c(S(=O)(=O)N(C)Cc2ccccc2)c1C(=O)N1CCCC1
1.28,-0.24,COC(=O)c1ccc(-n2c(CCC(=O)O)ccc2-c2ccc(C)cc2)cc1
0.39,0.28,O=C(NCc1ccc(Cl)cc1)C1CCN(c2cnccn2)CC1
0.71,0.69,O=C(O)CCC(=O)N1c2ccccc2NC2=C(C(=O)CC(c3ccc(F)cc3)C2)C1c1ccc([N+](=O)[O-])o1 (configuration not stated)
1.27,-1.08,Cc1ccc(O)c(C(CC(=O)N2CCCC2)c2ccccc2)c1 (configuration not stated)
2.51,-1.18,CCOC(=O)c1nn(-c2ccccc2)c(=O)cc1OCC(=O)Nc1cccc(OC)c1
0.01,0.28,O=C(c1ccco1)N1CCN(S(=O)(=O)c2cc(Cl)ccc2Cl)CC1
0.84,-0.55,CC(NC(=O)Nc1ccc([N+](=O)[O-])cc1)C(c1cccs1)N1CCCC1 (configuration not stated)
0.51,-0.29,CNC(=S)NN(c1ccccc1)c1ccccc1
0.17,-2.34,COC(=O)c1cc(S(=O)(=O)N2CCC(C)CC2)cn1C
1.75,0.34,Cc1ccc(SCC(=O)N2CCCC2)cc1
1.46,-1.07,CCN(CC(N)=O)S(=O)(=O)c1ccc(F)cc1
0.65,0.49,N#CCCNS(=O)(=O)c1ccc(C(=O)OCC2CCCCC2)cc1
1.14,1.41,COc1cc(OC)c(OC)cc1/C=C/c1cc(C(F)(F)F)[nH]c(=O)n1
0.06,0.43,CC(=O)N1c2ccc(S(=O)(=O)N(C)c3cc(C)ccc3C)cc2CC1C (configuration not stated)
0.08,0.84,CCOC(=O)NN=C1c2ccccc2-c2ccccc21
0.13,0.07,CCN(CC)CCCNC(=O)c1cc2c(=O)[nH]c3ccc(C)cc3c2s1
2.68,0.02,Cc1cc(C)c2c(=O)cc(C(F)F)oc2c1
0.55,0.66,O=C(Nc1ccccc1F)c1ccc2nc(N3C(=O)CCC3=O)sc2c1
0.01,0.01,CC1(C)CC(=O)C2=C(C1)N(c1cccnc1)C(N)=C(C#N)C2c1cccs1 (configuration not stated)
2.98,-0.98,COc1ccc(CCNC(=O)C2CCN(C(=O)NC3CCCCC3)CC2)cc1
0.24,0.49,CC(C)(C)n1nnnc1CN(Cc1cccnc1)Cc1ccccc1Cl
0.78,-1.75,O=C(NCc1ccc(S(=O)(=O)NC2CCCCC2)s1)c1ccccc1
0.4,-0.06,Cn1cc(S(=O)(=O)c2ccccc2)c(=O)c2cc(Cl)ccc21
1.02,0.26,O=C(c1ccco1)N1N=C(c2ccccc2)CC1c1ccc2nccnc2c1 (configuration not stated)
0.04,3.39,COC(=O)c1c(NC(=O)CC2Nc3cc(C)c(C)cc3NC2=O)sc(C)c1C (configuration not stated)
1.23,0.8,O=c1cc[nH]c2cccc(Cc3ccccc3)c12
0.82,-0.86,COc1ccc(NC(=O)CSCc2cc(=O)n3c(C)csc3n2)cc1
0.73,0.05,O=C(Cc1c(O)c2ccccc2[nH]c1=O)OC1CCCCC1
0.17,-0.52,COc1ccc2nc(SC)cc(C)c2c1
0.61,-0.19,CCCCn1c(=S)[nH]c2ncccc2c1=O
3.21,-0.4,CCOc1ccccc1NS(=O)(=O)c1c(C)noc1C
0.33,-1.46,O=C(c1cccc([N+](=O)[O-])c1)N1CCN(Cc2ccccc2)CC1
0.03,0.01,O=C(N/N=C/c1cccnc1)c1ccc([N+](=O)[O-])cc1
0.69,0.54,Cc1ccc(C)c(NC(=O)CN(C)C(=O)CSCc2c(C)noc2C)c1
0.94,0.49,COc1ccccc1N1CCN(C(=O)c2cccc(N3C(=O)C4C5C=CC(C5)C4C3=O)c2)CC1 (configuration not stated)
0.04,-0.73,CCn1c(O)c(C=NCCN2CCOCC2)sc1=S
0.41,0.72,CCn1c(-c2nn(-c3ccc(C)cc3)ccc2=O)n[nH]c1=S
0.51,-0.63,COc1ccc(NC(=O)Cn2c(=O)cnc3ccccc32)cc1S(=O)(=O)N1CCCCC1
0.59,-0.75,COc1ccc(NC(=O)CSc2nc(=O)n(CCN3CCOCC3)c3c2CCC3)cc1
0.15,-0.88,COc1cccc(NC(=O)Nc2nccc(C)n2)c1
0.02,0.99,CC1CCCC(C)N1CCCNC(=O)c1ccc2nc(N3CCCCC3)sc2c1 (configuration not stated)
1.56,0.9,COc1ccc(N(C)S(=O)(=O)c2c(C)noc2C)c(OC)c1
0.08,-0.28,O=C(Nc1ccc(OC(F)F)c(Cl)c1)[C@@H]1CCCN1C(=O)c1cccs1
0.84,-0.58,CCNc1ccc([N+](=O)[O-])cc1
1.89,0.1,O=C(CCC(=O)c1ccccc1)Nc1ccc(C(=O)O)cc1
0.59,-0.44,N#Cc1c(NC(=O)/C=C/c2ccco2)sc2c1CCCC2
2.17,-0.51,COCCNC(=O)c1cccc(OC2CCN(Cc3ccccc3OCCO)CC2)c1
0.98,-0.03,Cc1ccc(S(=O)(=O)n2cnc3ccccc32)cc1

(cont.)
KCNQ2 pot,KCNQ2 pot baseline,compound
0.26,0.01,CC(C)(C)c1cc(NC(=O)COC(=O)C2CC2)n(-c2ccccc2)n1
0.15,-0.76,CCc1cc2c(=O)n(CC(=O)NCCc3ccc(OC)c(OC)c3)cnc2s1
0.57,0.14,S=C(N/N=C/c1ccc2ncccc2c1)Nc1cccnc1
1.12,-0.38,CCOC(=O)c1sc(=S)n(-c2ccc(OC)cc2)c1C
0.24,1.26,COc1ccccc1CNS(=O)(=O)c1c(C(=O)N2CCCCC2)c(C)n(C)c1C
1.15,-1.34,CN(CC(=O)NCCc1ccc(S(N)(=O)=O)cc1)c1ccccc1
0.22,1.16,CC1(C)NC(=O)N(c2ccccc2Cl)C1(C)NO (configuration not stated)
0.4,-0.04,Cc1ccc(Oc2ccc(NC(=O)CCC(=O)OCC(=O)c3cccs3)cc2)cc1C

Compounds listed so far containing a CF3 group:
KCNQ2 pot,KCNQ2 pot baseline,compound
0.56,0.8,NNC(=O)COc1ccc(-c2n[nH]c(C(F)(F)F)c2-c2ccc(Br)cc2)c(O)c1
1.14,1.41,COc1cc(OC)c(OC)cc1/C=C/c1cc(C(F)(F)F)[nH]c(=O)n1

Continued.
KCNQ2 pot,KCNQ2 pot baseline,compound
2.26,-0.45,COc1ccccc1NC(=O)C1C2CCCCC21 (configuration not stated)
0.52,-0.34,COc1cc(C=O)ccc1OCCSc1ccc(C)cc1
0.07,0.25,Cc1ccc(OCCC(=O)OCC(=O)NCCc2ccccc2)cc1
0.29,-0.21,COC(=O)c1ccccc1NC(=O)CSc1nc(C)cc(C)n1
0.66,-1.13,CCCCC(=O)OCC(=O)c1[nH]c(C)c(C(=O)OCC)c1C
0.32,-0.74,Cc1ccc(-c2nnn(C(C)C(=O)N3c4ccccc4CCc4ccccc43)n2)cc1 (configuration not stated)
0.64,1.22,CC(C)(C)OC(=O)N1CCNc2ccccc2C1
0.54,1.54,CCCc1nnc(NC(=O)CCC(=O)Nc2ccc(Br)cc2)s1
0.03,3.13,O=C(CNCC1CCCO1)Nc1ccccc1N1CCOCC1 (configuration not stated)
1.67,-1.26,CC(Oc1ccc(Br)cc1)C(=O)N1CCc2ccccc21 (configuration not stated)
0.02,0.48,COc1ccc(N(CC(=O)Nc2cccc(F)c2)S(=O)(=O)c2c(C)[nH]c(=O)[nH]c2=O)cc1
0.01,1.02,CCOC(=O)C(=CNc1ccc(NC2=NCC(C)S2)cc1)C(=O)OCC (configuration not stated)
2.14,0.02,Cc1cccc(C)c1N1CCN(S(=O)(=O)c2ccccc2)CC1
0.68,0.46,Cc1ccc([N+](=O)[O-])c(C(=O)N/N=C/c2cccs2)c1
1.08,-0.24,COc1ccccc1C(=O)Nc1ccc(S(=O)(=O)N2CCC(C)CC2)cc1
0.22,-0.46,Cc1onc(-c2ccccc2Cl)c1C(=O)NCc1nc(-c2ccccc2)no1
1.03,-3.57,COc1cccc(N(C(=O)c2ccco2)C(C(=O)NC2CCCC2)c2ccc(N3CCOCC3)cc2)c1 (configuration not stated)
1.62,0.91,COc1ccc(CSc2nc(O)cc(=O)n2CC(C)C)cc1F
0.21,-1.45,Cc1ccc(N(C(=O)CNC(=O)c2ccco2)C(C(=O)NCC2CCCO2)c2ccccc2)cc1C (configuration not stated)
0.47,-0.12,CCOc1ccc(C(=O)C(C)=O)c(OCC)c1
0.55,1.42,CN(C)C(=O)N1CCC(C(=O)N2CCCC(C(=O)c3ccc(C(C)(C)C)cc3)C2)CC1 (configuration not stated)
1.58,0,Cc1ccc(NC(=S)N2CCC(O)CC2)c(C)c1
2.34,0.03,CCC(C)c1ccccc1NC(=O)c1cccnc1 (configuration not stated)
3.33,-1.04,Clc1cccc(N/N=C/c2ccncc2)c1
0.49,2.43,CCOc1ccc(/C=N/NC(=S)NC2CC3CCC2C3)cc1 (configuration not stated)
1.19,-0.09,Cc1cc(CN(C)C(=O)c2cc(COc3ccc(C)c(C)c3)on2)on1
0.11,-1.36,CC(NC(=O)c1ccncc1)C(c1cccs1)N1CCOCC1 (configuration not stated)
0.06,2.06,N#Cc1c(C(F)(F)F)cc(=O)n2c1[nH]c1ccccc12
1.52,-0.14,Cc1nnc(SCC(=O)Nc2ccccc2F)n1-c1ccc(F)cc1
1.54,0.43,Cc1cc(C(=O)Nc2cccc(C(=O)O)c2)oc1C
3.31,0,O=C(COC(=O)c1ccccc1)Nc1ccc(Cl)cn1
1.58,-2.3,CCc1nnc(NC(=O)C2CC(=O)N(c3ccc4c(c3)OCCO4)C2)s1 (configuration not stated)
0.03,-1.72,Cc1cc(=O)oc2c3c(cc(OCC(=O)Nc4ccc(CCO)cc4)c12)OC(C)(C)CC3
1.13,0.1,Cc1ccc(NC(=O)c2ccc(NCC3CCCO3)c([N+](=O)[O-])c2)cc1Cl (configuration not stated)
0.5,-0.64,O=C(N/N=C/c1ccc([N+](=O)[O-])o1)c1ccncc1
1.17,-0.4,Cc1ccc(OCC(=O)N/N=C/c2cccn2C)cc1
1.48,0.25,O=C1CCCCN1CCC(=O)N1CCCC(Nc2ccccc2)C1 (configuration not stated)
0.45,-0.59,O=S(=O)(c1ccccc1)n1c(C(O)c2ccccn2)cc2ccccc21 (configuration not stated)
0.03,-0.21,COc1ccc(OC)c(S(=O)(=O)n2cnc3ccccc32)c1
0.57,1.51,Fc1ccccc1NC(=S)N1CCN(C/C=C/c2ccccc2)CC1
9.35*,0.1*,CC(CC(=O)NC(C)c1ccc2c(c1)OCCO2)c1ccccc1 (configuration not stated)
0.33,-1.04,Cn1c(=O)c(-[n+]2ccccc2)c([O-])c2ccccc21
0.16,0.59,O=C1CCC2(C(=O)O)Sc3ccccc3N12 (configuration not stated)
0.66,-0.11,COc1cccc(N(C(=O)Cn2nnc(-c3cccs3)n2)C(C(=O)NC(C)C)c2ccc(C)o2)c1 (configuration not stated)
0.42,-0.37,CN(C)c1c(N)c(=O)oc2ccccc12
0.01,-0.08,c1ccc2sc(N3CCCN(Cc4nc(-c5cnccn5)no4)CC3)nc2c1
1.01,1.2,CC(=O)Nc1ccc(OCCC[n+]2cccc(C(=O)[O-])c2)cc1

Individual results from the list:
KCNQ2 pot baseline result of `O=C(CCC(=O)c1ccccc1)Nc1ccc(C(=O)O)cc1` stands at 0.1
KCNQ2 pot result of `Cc1ccc(S(=O)(=O)n2cnc3ccccc32)cc1` stands at 0.98
KCNQ2 pot baseline result of `COc1ccccc1C(=O)Nc1ccc(S(=O)(=O)N2CCC(C)CC2)cc1` stands at -0.24
KCNQ2 pot baseline result of `CC1(C)NC(=O)N(c2ccccc2Cl)C1(C)NO` (configuration not stated) stands at 1.16
KCNQ2 pot baseline result of `CCCCC(=O)OCC(=O)c1[nH]c(C)c(C(=O)OCC)c1C` stands at -1.13
KCNQ2 pot baseline result of `Cc1nccn1CC(O)Cn1c2ccccc2c2ccccc21` (configuration not stated) stands at -1.49
KCNQ2 pot baseline result of `O=C(CNCC1CCCO1)Nc1ccccc1N1CCOCC1` (configuration not stated) stands at 3.13

Screening results (PubChem BioAssay)
